Mtb growth: Confirmatory growth inhibition assay against Mycobacterium tuberculosis H37Rv, potency (AID 1949); most inactive calls were filed without a number and no value below 0 was filed; one-dose inhibition, % at 10 µg/mL; IC50 in µg/mL for titrated hits; hit rate 1.6% among 100,000;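 active = confirmed in a dose series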;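 note: bacteria grown 7 days with compound before Alamar blue readout; 0% = untreated bacteria and 100% = reference antibiotic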
An asterisk follows results filed as active; i = inactive. This is a subset; the hit share may differ from the screen's.

Compound	Mtb growth
Cc1cccc(NS(=O)(=O)c2ccc3ccccc3c2)n1	i
O=C(CCOc1ccccc1)NCc1ccco1	i
C=CCn1c(SCCc2ccccc2)nnc1-c1cccc([N+](=O)[O-])c1	1%
Cc1ccc(Cl)cc1N1CCN(C(=O)COc2ccc(S(=O)(=O)NCc3ccccc3)cc2)CC1	8%
COc1ccc(OC(C)C(=O)N2CCC(C)CC2)cc1 (stereo unspecified)	i
COc1ccc(OC)c(-n2c(Cn3c(-c4ccccn4)nc4ccccc43)n[nH]c2=S)c1	i
COc1ccc(C2NC(=O)NC(C)=C2C(=O)Nc2cc(C)ccc2C)cc1OC (stereo unspecified)	i
CCCCC(=O)Nc1cccc(NC(=O)c2cccc([N+](=O)[O-])c2)c1	11%
CCc1ccccc1OCCCCn1c2ccccc2c2ccccc21	i
CC(NC(=O)C(c1ccccc1)c1ccccc1)C1CC2CCC1C2 (stereo unspecified)	2%
COc1ccc(NC(=O)CSc2nncn2C)cc1	i
CN(c1cccc(NC(=O)CN(c2ccccc2)S(=O)(=O)c2ccc(Cl)cc2)c1)S(C)(=O)=O	i
COc1ccc(C(=O)NC(C)c2ccccc2)cc1OC (stereo unspecified)	i
Cc1ccc(S(=O)(=O)N(CC(=O)N2CCC(C(N)=O)CC2)c2cccc(C(F)(F)F)c2)cc1	i
Cn1c(SCC(=O)Nc2ccc(Br)cc2C(F)(F)F)nnc1-c1ccc(Cl)cc1	i
CCCC(=O)Nc1ccc(Cl)c(NC(=O)c2cc(OCC)c(OCC)c(OCC)c2)c1	i
O=C(CN1C(=O)c2ccc(Br)cc2C1=O)OCc1ccccc1	i
CC(C)c1ccc(OCc2ccc(C(=O)NN3CCN(C)CC3)o2)cc1	i
Cc1cc(C(=O)Nc2ccccc2C(=O)O)ccc1NC(=O)CC(C)C	i
COC(=O)C1=C(C)NC(=O)NC1c1cc(OC)c(OCC(=O)O)cc1Br (stereo unspecified)	i
CCOC(=O)CN1C(=O)c2ccc(C(=O)OCC)cc2C1=O	i
Cc1cc(C)c(NC(=O)CCN2CCCCC2)c(C)c1	1%
COc1ccc(N2CCN(C(=O)CCC3CCCC3)CC2)cc1	4%
O=C(CC12CC3CC(CC(C3)C1)C2)Nc1ccc(F)c(Cl)c1	3µg/mL*
COc1ccc(OC)c(NC(=O)Cc2ccc(C)cc2)c1	0%
CC1CCCC(C)N1C(=O)c1ccccc1NC(=O)c1cccc(Br)c1 (stereo unspecified)	2%
Cc1ccccc1NC(=O)c1cc(S(=O)(=O)NCc2ccccc2)ccc1Cl	4%
COc1ccc(NC(=S)Nc2cnc3ccccc3c2)c(OC)c1	i
CCN(CC)C(=O)CSc1nc2c(c(=O)n(C)c(=O)n2C)n1CC	i
CC(C)CC(=O)Nc1sc2c(c1C#N)CCCCC2	i
COc1ccccc1NC(=O)C(C)n1cnc2ccccc2c1=O (stereo unspecified)	i
CCC(=O)Oc1cc2oc(CC)c(-c3nc(C)cs3)c(=O)c2cc1CC	7%
Cc1sc2ncnc(NCCOCCO)c2c1C	i
O=C(NCCc1nc2ccccc2[nH]1)c1ccc(Br)cc1	3%
CCOC(=O)c1ccc(NC(=O)CSc2n[nH]c(CC(C)C)n2)cc1	3%
Cc1ccnc(NC(=O)c2ccccc2NC(=O)C(C)(C)C)c1	i
CCCn1c(OC)nc2c1c(=O)n(C)c(=O)n2C	i
COC(=O)c1cc(OC)c(OC)cc1NC(=O)c1ccc(Br)s1	i
COC(=O)c1ccc(COC(=O)c2cccc(-c3nnc(-c4ccccc4)o3)c2)cc1	1%
CCOc1ccc(NC(=O)NNC(=O)c2cccnc2)cc1	i
Cc1ccc(-c2noc(-c3ccccc3O)n2)cc1	i
CCOCCC(=O)NCc1ccccc1OC	i
Cc1cc(C(=O)O/N=C(\N)c2ccccc2)ccc1[N+](=O)[O-]	0%
NC(=O)CN(Cc1ccccc1)S(=O)(=O)c1ccc2c(c1)OCCO2	i
Nc1nnc(SCC(=O)c2ccc3ccccc3c2)s1	i
CCSc1nc2sc3c(c2c(=O)n1-c1ccc(C)cc1)CCN(Cc1ccccc1)C3	i
O=C(Oc1ccc2c(c1)OCO2)c1ccc(Br)c(S(=O)(=O)N2CCOCC2)c1	4%
Cc1cc(NC(=O)c2cc(-c3ccccc3)on2)n(-c2ccccc2)n1	i
CCN1C(=O)c2ccc(C(=O)Nc3cccc(C(=O)O)c3)cc2C1=O	i
CC(=O)Nc1ccc(S(=O)(=O)N2CCCC2C(=O)O)cc1 (stereo unspecified)	i
O=C(O)c1ccc(C2Nc3ccc([N+](=O)[O-])cc3C3c4ccccc4CC23)cc1 (stereo unspecified)	i
CCOC(=O)c1ccc(NC(=O)C2CCN(S(=O)(=O)c3ccc(OC)c(Cl)c3)CC2)cc1	3%
O=C(c1cc(Cl)ccc1Cl)N1CCc2ccccc21	3%
CCC(C)Sc1nc2ccccc2n1CC(=O)O (stereo unspecified)	i
O=Cc1ccc(OCc2ccccc2[N+](=O)[O-])c(Cl)c1	i
Cc1cc([N+](=O)[O-])nn1Cc1ccccc1Cl	2%
O=C(CN1CCN(CCN2C(=O)c3cccc4cccc(c34)C2=O)CC1)c1ccc(Cl)cc1	6.6µg/mL*
COc1oc(-c2ccccc2)nc1C(F)(F)F	i
CCOc1ccc(NS(=O)(=O)c2ccc(NC(=O)c3ccccc3Cl)cc2)cc1	i
CCn1nnc(NC(=O)COc2ccc(C3CCCCC3)cc2)n1	2µg/mL*

Carrying on.
Compound	Mtb growth
CC1CCN(CC(=O)Nc2ccccc2C(=O)c2ccccc2)CC1	1%
Cc1cc(SCC(=O)N2CCCCC2)nc2ccccc12	i
COc1ccc(-c2nnc(SCC(=O)Nc3ccccc3[N+](=O)[O-])n2C)cc1	i
O=C(NC1CCCCC1NC(=O)C1CC1)C1CC1 (stereo unspecified)	i
COC(=O)c1ccc(NC(=O)c2ccccc2N(Cc2ccccc2)S(C)(=O)=O)cc1	i
CCn1nc(C)c(NC(=O)c2cc(-c3ccncc3)nc3c(C)cc(C)cc23)c1C	i
CCC(=O)N1CCN(c2ccc(NCc3ccccc3)cc2)CC1	2%
Cc1nc2cc(NC(=O)N3CCSCC3)ccc2n1C	9%
O=C(Nc1ccc2c(c1)OCCO2)c1ccc(-c2ccc(Cl)cc2)o1	i
CCNc1nc(NC(C)C)nc(Oc2ccc(OCC(=O)OCC)nn2)n1	i
Cc1cc(NC(=O)Cn2nc(C(F)(F)F)c3c2CCCC3)no1	i
Cc1ccc(/C(=N\C(=S)Nc2ccccc2)Nc2ccccc2)cc1	i
COc1ccc(C(=O)Nc2sc(Cc3ccccc3)c(C)c2C(N)=O)cc1Br	i
COc1ccc(NCC(=O)Nc2ccc(F)cc2)cc1	6%
Cc1sc(NC(=S)NC(=O)c2ccccc2Cl)c(C#N)c1C	i
O=C(O)c1ccc(NC(=S)NC(=O)c2cccc(F)c2)cc1	i
O=S(=O)(Nc1ccc2ccccc2c1)c1cc(Cl)ccc1Cl	i
C=CCN(CC=C)CCCOc1ccc(OCc2ccccc2)cc1	i
CCc1ccc(N(CC(=O)Nc2ccc(Cl)c(C(F)(F)F)c2)S(C)(=O)=O)cc1	1%
Cc1ccc(C)n1-c1ccc(C(=O)OCC(=O)c2ccc([N+](=O)[O-])cc2)cc1	i
CC12CCC(C(=O)Nc3ccc(SC(F)F)cc3)(C(=O)C1=O)C2(C)C (stereo unspecified)	i
O=C(NC(=S)Nc1ccccc1N1CCCC1)c1cccc(Br)c1	i
COC(=O)c1ccccc1NC(=O)CSc1nnc(-c2ccc(C)cc2)o1	i
CCn1c(SCC(=O)Nc2cc(C)c(C)cc2Br)nnc1C(C)NC(=O)c1ccc(C)cc1 (stereo unspecified)	i
Cc1ccccc1OCc1nnc(SCC(=O)N2CCCC2)n1C	i
Cc1ccc2cccc(NC(=O)C34CCC(C)(C(=O)C3)C4(C)C)c2n1 (stereo unspecified)	11%
CC(=O)c1ccc(N2CCN(C(=O)c3cc(C)on3)CC2)cc1	i
CCC(=O)Nc1ccccc1-c1ccccc1NC(=O)CC	i
CS(=O)(=O)N1CCC(C(=O)Nc2ccc(Cl)c(C(F)(F)F)c2)CC1	30%
COc1ccc(Oc2c(C(F)(F)F)oc3cc(OC(=O)N4CCOCC4)ccc3c2=O)cc1	i

Random excerpt: 3 compounds from above, in no set order.
Compound	Mtb growth
COC(=O)c1ccccc1NC(=O)CSc1nnc(-c2ccc(C)cc2)o1	i
Cc1ccc2cccc(NC(=O)C34CCC(C)(C(=O)C3)C4(C)C)c2n1 (stereo unspecified)	11%
O=C(NC(=S)Nc1ccccc1N1CCCC1)c1cccc(Br)c1	i

The listing continues.
Compound	Mtb growth
CC(C)CNC(=O)c1cccc(NC(=O)COc2cccc([N+](=O)[O-])c2)c1	i
OCCNCc1ccccc1OCc1ccccc1Cl	i
O=C1Nc2c(cccc2C(F)(F)F)C1=O	i
CC1CCc2c(sc3ncn(CC(=O)NCc4ccco4)c(=O)c23)C1 (stereo unspecified)	i
CC1CCN(C(=S)c2ccc(OC(=O)c3ccc([N+](=O)[O-])cc3)cc2)CC1	i
N#Cc1ccccc1S(=O)(=O)Nc1ccc(C(=O)O)cc1	i
Cc1cc(NC(=S)NC(=O)c2ccccc2C)ccc1NC(=O)c1ccccc1	i
COc1ccc(CC(=O)Nc2ccc(-c3noc(/C=C/c4ccccc4)n3)cc2)cc1	i
O=C1CC(N2CCN(C/C=C/c3ccccc3)CC2)C(=O)N1c1cccc(F)c1 (stereo unspecified)	i
Cc1ccc(S(=O)(=O)N2CCCCCC2)cc1C	i
CC1CCN(CCNC(=S)Nc2ccc(Cl)cc2)CC1	i
Cc1ccc(N(CC(=O)Nc2ccc(F)cc2F)S(C)(=O)=O)cc1C	i
Cc1ccc2c(=O)c(CN3CCCC3)c(C)[nH]c2c1C	2%
C=C(C)c1cccc(C(C)(C)NC(=O)Nc2ccc(OC)cc2)c1	i
O=C(CN(Cc1ccc(F)cc1)S(=O)(=O)c1ccc(Cl)cc1)Nc1ccc2c(c1)OCO2	i
Cc1ccc(C2NNC(=O)C2NC(=O)c2ccc(F)cc2)cc1 (stereo unspecified)	i
NS(=O)(=O)c1ccc(NC(=O)CSCc2ccccc2)cc1	i
O=C(Nc1ccc2c(c1)CCC2)C1CCCO1 (stereo unspecified)	i
Cc1ccc(NC(=O)CSc2nnc3scc(-c4ccccc4)n23)cc1	i
COc1cc([N+](=O)[O-])ccc1NC(=O)c1sc2cc(Cl)ccc2c1Cl	6%
COc1ccc(-n2c(SC/C=C/c3ccccc3)nnc2-c2ccncc2)cc1	3%
COc1cc(C2NC(=S)NC(C)=C2C(=O)Nc2ccccc2)ccc1OCc1ccccc1 (stereo unspecified)	i
COc1cccc(-c2cc(C(=O)N3CCN(c4ccc([N+](=O)[O-])cc4)CC3)c3ccccc3n2)c1	i
COc1ccc2nc(NCCCO)[nH]c2c1	i
COC(=O)c1cc(OC)c(OC)cc1NC(=O)C1CCCO1 (stereo unspecified)	0%
O=C(Nc1cccc(F)c1)C1CCN(C(=O)c2ccc(Br)cc2)CC1	i
OC(c1ccccc1)c1nc2ccccc2n1Cc1ccccc1Cl (stereo unspecified)	5%
O=C(NCC1C2CC3CC(C2)CC1C3)c1ccc(Cl)cc1Cl (stereo unspecified)	i
O=C(Nc1nc2ccccc2s1)[C@@H]1C2C=CC(C2)[C@@H]1C(=O)O (stereo partly specified)	i
CCCC(=O)NCCN1CCN(C(=O)CCC)CC1	i

Looked up above.
Cc1cc([N+](=O)[O-])nn1Cc1ccccc1Cl in Mtb growth has 2%
COc1ccc(NCC(=O)Nc2ccc(F)cc2)cc1 in Mtb growth has 6%

Sorted by SMILES length (low to high): part of the list above
Compound	Mtb growth
CCCC(=O)NCCN1CCN(C(=O)CCC)CC1	i
OC(c1ccccc1)c1nc2ccccc2n1Cc1ccccc1Cl (stereo unspecified)	5%
O=C(NCC1C2CC3CC(C2)CC1C3)c1ccc(Cl)cc1Cl (stereo unspecified)	i
O=C(Nc1nc2ccccc2s1)[C@@H]1C2C=CC(C2)[C@@H]1C(=O)O (stereo partly specified)	i

(further entries)
Compound	Mtb growth
CC(=O)c1cccc(NC(=O)CN(c2ccc(C)c(C)c2)S(=O)(=O)c2ccccc2)c1	i
CCOC(=O)NCCCc1ccccc1	2%
Cc1cc(C)cc(OCC(O)CN(CCO)CCO)c1 (stereo unspecified)	i
COc1cccc(OC)c1C(=O)NC(=S)Nc1ccccc1I	i
CS(=O)(=O)c1ccc(S(=O)CC(=O)Oc2ccc(Br)cc2)c([N+](=O)[O-])c1 (stereo unspecified)	i
O=[N+]([O-])c1cn(-c2ccccc2)nc1-n1nnc2ccccc21	0%
CCOC(=O)c1sc(NC(=O)CSc2nc(N)cc(=O)[nH]2)nc1C	i
CN(C)CCOc1cccc(Br)c1	i
COC(=O)c1noc(-c2ccc(Cl)cc2)n1	i
Cc1ccc(-n2nc3c4nonc4ccc3[n+]2[O-])cc1	1%
Cc1cc(C=O)c2c(c1)C=CC1(Oc3ccccc3C(=O)N1C)O2 (stereo unspecified)	8%
Cc1ccc(-c2ccc(OCC(=O)N3CCC(C)CC3)cc2)cc1	13%
O=C(Oc1cccc2cccnc12)c1ccc2c(c1)OCO2	i
O=C(Cc1cccs1)NCCCc1ccccc1	i
CC(=O)Nc1ccc2c(c1)nc(CN1CCN(C(C)=O)CC1)n2C	i
COc1ccc(CN2CCN(CCSc3ccc(C)cc3)CC2)c(OC)c1OC	0%
CC(=O)Nc1ccc(S(=O)(=O)NNC(=S)Nc2cccc(Cl)c2C)cc1	i
CCOc1ccccc1NC(=O)c1c(NCc2ccccn2)sc2c1CCC2	i
Cc1ccc(-n2c(C)nnc2SCC(=O)Nc2ccc(Br)cc2C)cc1	i
